Screens (PubChem BioAssay)
Six1-Eya2 blk: blocks human Six1 binding to Eya2; AlphaScreen GST-Six1/His-Eya2 binding, biochemical; active compounds read low; control for the full effect not named in the record; activity change, % (concentration not given with the values); Q15475+O00167; hit rate 0.56% among 360,000; in the data active = activity change below about -65%; inconclusive = about -30% to -65%; inactive = above about -30%; also: % is scaled to controls: 0 for no effect and ±100 for the full control effect
Target sequence (O00167 whole entry, looked up): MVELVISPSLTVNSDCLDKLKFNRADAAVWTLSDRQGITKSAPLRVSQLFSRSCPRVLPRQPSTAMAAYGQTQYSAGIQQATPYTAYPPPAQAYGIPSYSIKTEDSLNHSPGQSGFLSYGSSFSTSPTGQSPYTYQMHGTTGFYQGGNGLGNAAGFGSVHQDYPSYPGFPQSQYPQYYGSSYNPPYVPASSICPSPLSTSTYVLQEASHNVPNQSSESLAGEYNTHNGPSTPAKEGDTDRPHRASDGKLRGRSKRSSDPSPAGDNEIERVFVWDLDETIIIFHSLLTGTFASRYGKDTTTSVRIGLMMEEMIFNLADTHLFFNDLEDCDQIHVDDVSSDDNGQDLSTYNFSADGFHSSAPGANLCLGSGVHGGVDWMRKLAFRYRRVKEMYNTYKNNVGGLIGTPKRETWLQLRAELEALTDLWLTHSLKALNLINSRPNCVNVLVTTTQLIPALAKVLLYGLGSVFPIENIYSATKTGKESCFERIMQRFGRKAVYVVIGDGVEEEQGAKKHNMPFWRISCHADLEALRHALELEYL
Target sequence (Q15475 whole entry, looked up): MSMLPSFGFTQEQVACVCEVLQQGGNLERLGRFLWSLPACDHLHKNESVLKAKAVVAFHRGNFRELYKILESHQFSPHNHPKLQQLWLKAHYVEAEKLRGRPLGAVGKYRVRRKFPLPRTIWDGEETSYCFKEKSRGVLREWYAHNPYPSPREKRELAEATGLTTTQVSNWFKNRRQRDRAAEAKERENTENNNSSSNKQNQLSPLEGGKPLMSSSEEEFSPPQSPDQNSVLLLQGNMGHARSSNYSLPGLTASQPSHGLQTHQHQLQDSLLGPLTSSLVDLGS
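Six1/Eya2 binding was read as AlphaScreen signal after compounds were pinned into GST-Six1 plus His-tagged Eya2 (5X stock 250/500 nM) in pH 8.0 Tris/NaCl/TCEP buffer, beads added, then incubated 1 h, 37 C, dark.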
TRPML1 inh: inhibitors of human TRPML1 channel. activity change, negative = inhibition, % (concentration not given with the values). hit rate 0.02% among 390,000. TRPML1-inducible cells, Ca2+ dye fluorescence, FDSS; active compounds read low; inhibition of EC80 agonist-evoked calcium signal. Q9GZU1; in the data active means activity change below about -50%; inconclusive means about -30% to -50%; inactive means above about -30%;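 also: stimulus is agonist 54-4 at its EC80 concentration; % is scaled to controls: 0 for no effect and ±100 for the full control effect; the text of the record puts the active cut at -80%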
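TRPML1-DL cells, Tet-induced overnight (~16 h, 37 °C) at 1,500 cells/well, were loaded with Ca8 no-wash dye plus quencher for 45-90 min at room temperature. Compounds were pinned during FDSS kinetic reading; agonist 54-4 at EC80 (4 uM final) then added.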
TRPML1 ag: human mucolipin-1 channel agonism. Q9GZU1. activation, % (test concentration not listed). hit rate 0.12% among 410,000. TRPML1-expressing cells, Ca2+ dye fluorescence, FDSS; host cell line not named in the record; reference of the full effect not given here; in the data active = activation above about 50%; inconclusive = about 30% to 50%; inactive = below about 30%; also: 0% is about no effect; the text of the record puts the active cut at 80%
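Kinetic FDSS Ca2+ read in Tet-induced TRPML1-DL cells (ABD Ca8 dye plus quencher, 45-90 min RT loading): baseline, then compound, then 110 s agonist window; EC80 agonist 54-4 at 4uM final added afterwards for a 110 s antagonist window.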
CtBP-E1A inh: CtBP/E1A binding inhibition; hit rate 0.49% among 340,000; activity change, % (concentration not given with the values); AlphaScreen GST-E1A/His-CtBP binding, 1536-well; active compounds read low; control for the full effect not named in the record; in the data active means activity change below about -65%; inconclusive means about -30% to -65%; inactive means above about -30%; also: % is scaled to controls: 0 for no effect and ±100 for the full control effect
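GST-E1A and His-tagged CtBP (125 nM each as 5X stock) were preincubated with pin-transferred compound for 2 h at 37 °C in the dark, then glutathione donor and nickel acceptor beads were added for 1 h before AlphaScreen reading.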
TRPV1 PAM: enhances activation of the human vanilloid receptor TRPV1; Q8NER1; AID 540277; hit rate 0.02% among 320,000; potentiation, % at 8.33 µM; TRPV1-expressing cells, Fluo-8 calcium influx, capsaicin EC20 potentiation; host cell line not named in the record; control for the full effect not named in the record; active means potentiation above 80%; inconclusive means 30% to 80%; inactive means below 30%; also: 0% is about no effect
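TRPV1-expressing cells were cultured overnight at 35.5C and loaded with Fluo-8 calcium dye for 40 to 90 min at room temperature. After a 10 s baseline, compound was added and calcium influx was read kinetically for 3 min (ex 480/em 520 nm).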
D2 PAM: positive allosteric modulators of human D2 dopamine receptor; P14416; potentiation, % (test concentration not listed); AID 624464; DiscoveRx D2 beta-arrestin cells, luminescence, 90 min; 100% = 57 uM dopamine signal; hit rate 0.23% among 360,000; active = potentiation of 50% or more; inconclusive = 30% to 50%; inactive = 30% or less;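 also: compound concentration not given in the record; tested on top of an EC20 dose of dopamine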
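PathHunter beta-arrestin assay in DiscoveRx D2 cells. Compounds were added with an EC20 of dopamine (50 nM final) for 90 min at 37 deg C. Luminescence was read 1 h after detection reagent, with 57 uM dopamine as the EC100 control.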
An asterisk follows results filed as active; ? = inconclusive; / = no result given. Outcome played no part in choosing rows (roughly 0.95% active in at least one column).

SMILES	Six1-Eya2 blk	TRPML1 inh	TRPML1 ag	CtBP-E1A inh	TRPV1 PAM	D2 PAM
O=S(=O)(/N=C(/Nc1ccccn1)c1ccccc1)c1ccccc1	4	-7	0.2	5	-12	4
CCc1nc(SCC(=O)OC(C)C)c2ccccc2n1	7	13	0.9	/	-12	-6
CCn1nnnc1SCC(=O)Nc1cccc(C)n1	-1	-4	-0.5	3	5	7
CCC(c1nnnn1Cc1ccc(OC)cc1)N(CCCO)Cc1cc2cc3c(cc2[nH]c1=O)OCO3 (stereo not given)	4	-5	-0.5	2	-1	-4
Cc1ccccc1Nc1nnc(SCC(=O)Nc2ncc(C(F)(F)F)cc2Cl)s1	12	-1	0.0	-25	4	0
O=C(NCc1ccco1)C(c1ccc(F)cc1)N(C(=O)Cc1cccs1)c1cccnc1 (stereo not given)	-1	-3	0.6	4	0	-11
CC(C)CCOc1cccc(OCC(=O)N(C)C2CCS(=O)(=O)C2)c1 (stereo not given)	1	-3	0.9	-13	-3	0
CS(=O)(=O)c1ccc(Cl)c(NC(=O)COC(=O)CCN=C2NS(=O)(=O)c3ccccc32)c1	-1	-3	-0.3	12	-5	2
CCc1ccccc1NC(=O)CN(C)C(=O)Cn1ncc(Cl)c(Cl)c1=O	-2	23	-0.5	2	-5	11
O=C(Cn1c(CC(=O)N2CCOCC2)nc2ccccc21)Nc1ccc2c(c1)OC(F)(F)O2	-2	12	0.7	1	-5	-3
Cc1cccc(C)c1N1C(=O)CC(N2CCN(S(=O)(=O)c3ccccc3F)CC2)C1=O (stereo not given)	6	-3	0.0	/	/	7
COC(=O)Cn1nnc(N2CCOCC2)n1	0	9	-0.3	1	5	-5
O=C(/C=C/c1ccccc1Cl)NCc1ccco1	-10	-1	-0.1	-15	-20	9
COc1ccc(NC(=O)C2CCCN(S(=O)(=O)c3ccc4[nH]c(=O)ccc4c3)C2)cc1 (stereo not given)	-1	2	0.2	4	-12	2
O=C(CCN1CCN(C/C=C/c2ccccc2)CC1)Nc1ccccc1Cl	-2	40	0.9	-9	9	-8
O=C(O)c1ccccc1NN=Cc1ccccc1	-1	-7	-1.3	6	/	-1
Cc1ccc(NC(=O)CN2CCCC2c2cccn2C)c(Br)c1 (stereo not given)	-29	12	-1.7	/	/	-12
Nc1nc(-c2ccc(Br)cc2)c(S(=O)(=O)c2ccccc2)s1	-8	-9	1.7	0	6	0
NC(=O)CN1C(=O)C2CCCCN2C(=O)c2ccccc21 (stereo not given)	22	-11	0.1	2	11	-28
COc1ccc2[nH]cc(C(=O)N3CCCCC3)c(=O)c2c1	3	6	-0.1	5	1	-2
CN(C)S(=O)(=O)N(CC(=O)N1CCN(c2ccccc2F)CC1)c1ccccc1	-2	-4	-1.1	-2	9	-14
O=C(NC1CCCCC1)C1c2ccccc2OCC(=O)N1Cc1ccco1 (stereo not given)	17	/	-0.9	23	/	/
Cc1ccc(-c2noc(COc3ccc4c(c3)OCO4)n2)cc1	-2	14	-0.8	1	17	-2
CCOc1ccc(OCCC(=O)Nc2ccc(N3CCOCC3)cc2N2CCOCC2)cc1	-4	1	-0.4	-4	/	-8
CCOc1ccc(CCNC(=O)c2ccc(CNS(=O)(=O)c3ccccc3)cc2)cc1OCC	-2	?	1.4	-4	-4	-10
CN(C)c1ccnc2sc(C(N)=O)c(N)c12	-20	-1	0.8	-3	-1	-12
CCOc1ccccc1CNC(=O)CCCC(=O)n1nc(C)c2ccccc21	1	-6	-0.3	/	5	-11
O=C1CCCC(O)=C1N=Nc1ccc2c(c1)OCO2	1	-23	0.8	-13	3	-18
C[C@H]1CN([C@@H](C)CO)C(=O)CCCn2cc(nn2)CO[C@@H]1CN(C)C(=O)Oc1ccccc1	11	-19	0.5	-3	/	-7
CCn1c(C)nnc1SCC(=O)NC1CCCC1	-7	11	5.0	7	6	-2
COc1ccc2c(c1)CC[C@@H]1[C@@H]2CC[C@]2(C)C(=O)CC[C@@H]12	3	0	0.3	6	-4	-6
COc1cc(C(=O)NCC(c2cccs2)N2CCOCC2)cc(OC)c1OC (stereo not given)	4	2	0.1	5	-5	-33
CC(C)OC(=O)CSc1nc(N2CCOCC2)c2c(c1C#N)CC(C)(C)OC2	7	13	0.1	2	-6	13
COc1cc2c(cc1OC)CN(CC(=O)Nc1ccc(C)c(S(=O)(=O)N3CCOCC3)c1)CC2	3	2	0.5	/	-14	1
Cc1sc2ncnc(SCC(=O)c3ccc4c(c3)OCCO4)c2c1-c1ccccc1	-1	-1	2.4	2	1	-6
Cc1ccc(CNC(=O)C2CC(c3ccc([N+](=O)[O-])cc3)=NO2)cc1 (stereo not given)	1	-11	-0.7	2	6	-1
COc1ccccc1CNC(=O)C1CCCN(S(C)(=O)=O)C1 (stereo not given)	6	1	0.8	13	12	-9
Fc1ccc(-c2nc3nc4ccccc4nc3n2Cc2ccco2)cc1	-3	10	1.0	2	-5	-29
O=C(N=Nc1c(O)n(Cc2ccccc2)c2ccccc12)c1ccncc1	0	/	/	6	-5	0
O=C(CC1S/C(=N/N=C/C=C/c2ccccc2)NC1=O)Nc1ccc(Cl)c(Cl)c1 (stereo not given)	-1	-4	2.5	4	11	11

15 structures from above, ordered by molar mass, rising.
SMILES	Six1-Eya2 blk	TRPML1 inh	TRPML1 ag	CtBP-E1A inh	TRPV1 PAM	D2 PAM
O=C1CCCC(O)=C1N=Nc1ccc2c(c1)OCO2	1	-23	0.8	-13	3	-18
COc1ccc2c(c1)CC[C@@H]1[C@@H]2CC[C@]2(C)C(=O)CC[C@@H]12	3	0	0.3	6	-4	-6
COc1ccc2[nH]cc(C(=O)N3CCCCC3)c(=O)c2c1	3	6	-0.1	5	1	-2
Cc1ccc(-c2noc(COc3ccc4c(c3)OCO4)n2)cc1	-2	14	-0.8	1	17	-2
COc1ccccc1CNC(=O)C1CCCN(S(C)(=O)=O)C1 (stereo not given)	6	1	0.8	13	12	-9
Cc1ccc(CNC(=O)C2CC(c3ccc([N+](=O)[O-])cc3)=NO2)cc1 (stereo not given)	1	-11	-0.7	2	6	-1
Cc1ccc(NC(=O)CN2CCCC2c2cccn2C)c(Br)c1 (stereo not given)	-29	12	-1.7	/	/	-12
O=C(CCN1CCN(C/C=C/c2ccccc2)CC1)Nc1ccccc1Cl	-2	40	0.9	-9	9	-8
Nc1nc(-c2ccc(Br)cc2)c(S(=O)(=O)c2ccccc2)s1	-8	-9	1.7	0	6	0
CC(C)OC(=O)CSc1nc(N2CCOCC2)c2c(c1C#N)CC(C)(C)OC2	7	13	0.1	2	-6	13
COc1cc(C(=O)NCC(c2cccs2)N2CCOCC2)cc(OC)c1OC (stereo not given)	4	2	0.1	5	-5	-33
CN(C)S(=O)(=O)N(CC(=O)N1CCN(c2ccccc2F)CC1)c1ccccc1	-2	-4	-1.1	-2	9	-14
Cc1sc2ncnc(SCC(=O)c3ccc4c(c3)OCCO4)c2c1-c1ccccc1	-1	-1	2.4	2	1	-6
CCOc1ccc(CCNC(=O)c2ccc(CNS(=O)(=O)c3ccccc3)cc2)cc1OCC	-2	?	1.4	-4	-4	-10
CCC(c1nnnn1Cc1ccc(OC)cc1)N(CCCO)Cc1cc2cc3c(cc2[nH]c1=O)OCO3 (stereo not given)	4	-5	-0.5	2	-1	-4

The listing picks up, repeating the 2 entries before the break.
SMILES	Six1-Eya2 blk	TRPML1 inh	TRPML1 ag	CtBP-E1A inh	TRPV1 PAM	D2 PAM
O=C(N=Nc1c(O)n(Cc2ccccc2)c2ccccc12)c1ccncc1	0	/	/	6	-5	0
O=C(CC1S/C(=N/N=C/C=C/c2ccccc2)NC1=O)Nc1ccc(Cl)c(Cl)c1 (stereo not given)	-1	-4	2.5	4	11	11
CC(NC(=O)C(c1ccccc1)c1ccccc1)C(=O)N1CCCCC1 (stereo not given)	13	7	0.3	/	-36	2
COc1ccc(OC)c(-n2c(O)cnc2Nc2nc(C)cc(C)n2)c1	7	-11	1.0	7	0	2
CCOC(=O)c1sc(NC(=O)CSc2nc(O)c(Cc3ccccc3)c(=O)[nH]2)nc1C	?	-13	1.7	/	?	-28
O=C(CSc1nc2ccccc2c(=O)n1-c1ccc(F)cc1F)Nc1ccc(N2CCOCC2)cc1	-15	-21	1.3	-20	-3	-10
C=CCn1cc(C(=O)NCCN(CC)CC)c(=O)c2cc(S(=O)(=O)N3CCCCCC3)ccc21	0	-5	-0.6	1	-42	-5
CCOC(=O)c1c(NC(=O)C2=COCCO2)sc2c1CCN(C(=O)OC)C2	8	-12	-0.1	4	2	9
COc1cc(SC)ccc1C(=O)N1CCN(c2ccc(O)cc2)CC1	-3	21	1.0	-1	1	1
Cn1c(CCC(=O)OCC(=O)NCC(F)(F)F)nc(=O)c2ccccc21	0	3	0.4	0	-5	-3
O=S(=O)(c1ccc(Cl)cc1)N1CCSC1c1ccco1 (stereo not given)	0	18	0.9	5	-5	-3
COc1ccc(C(=O)N2CCCC(Nc3ccc(C)c(C)c3)C2)cc1 (stereo not given)	1	5	0.6	-1	-12	-2
CC1=C(C(=O)N2CCOCC2)CC(CC(=O)NCC2CCCCC2)C(=O)N1CCCN1CCCC1=O (stereo not given)	-20	0	0.3	-1	/	4
CC(CN1C(C)CCCC1C)OC(=O)c1ccc(F)cc1 (stereo not given)	-1	2	-0.7	-3	-10	-3
CCCCN(C(=O)c1ccc([N+](=O)[O-])s1)c1c(N)n(CC(C)C)c(=O)[nH]c1=O	3	33	-0.1	7	-14	29
CCN(CC)c1ccc(N=Cc2cc(Br)ccc2O)cc1	?	8	0.9	-30	2	-2
O=C(COc1ccccc1F)N/N=C1\CCCc2ccccc21	1	11	0.7	9	4	-1
CC1(C(=O)NS(=O)(=O)c2cccc(Cl)c2)CCN1C(=O)C/C=C/c1ccccc1 (stereo not given)	11	/	0.3	-17	/	-13
COc1cc(NC(=O)CSc2nc3ccccc3cc2C)c(C(=O)O)cc1OC	-4	6	-0.8	-2	?	10
C=CCn1c(COc2ccccc2F)nnc1SCC(=O)Nc1cc2oc3ccccc3c2cc1OC	-11	25	1.2	-4	3	-1
CCOC(=O)c1c(CSc2ccccc2)oc2ccc(O)cc12	-5	0	2.1	/	-5	1
CCN1C(=O)N[C@@H](c2ccccc2)[C@@H](C(=O)OC)[C@H]1C	9	1	-0.7	5	/	-5
O=S1(=O)C=CC(c2ccccc2)C1 (stereo not given)	9	14	-0.3	10	-4	-1
CC(C)(O)C#Cc1ccc(CN2CCN(C3CCCCC3)C(CCO)C2)s1 (stereo not given)	1	6	0.2	1	0	-12
O=C(c1cccs1)N1CCN=C1SCc1cccc(F)c1	19	23	0.4	3	-3	-14
O=C(CSCSCC(=O)NCC1CCCO1)NCC1CCCO1 (stereo not given)	17	-20	0.5	0	25	5
Cc1ccc2c(c1)C(=O)C(=O)N2c1ccc(C(F)(F)F)cc1	3	3	-0.2	-2	/	-41
O=C1c2oc3ccc(Cl)cc3c(=O)c2C(c2ccco2)N1CCN1CCOCC1 (stereo not given)	0	-4	0.9	0	7	-4
O=C(c1ccc(Cl)c(S(=O)(=O)N2CCCC2)c1)N1CCN(c2ncccn2)CC1	13	1	0.2	-18	-9	0
COc1cc(SC)ccc1C(=O)OCC(=O)N1CCCC1	0	-10	0.0	2	14	-2
